Screens from PubChem BioAssay.
YopH PTP inh – inhibitors of Yersinia enterocolitica YopH tyrosine phosphatase | fluorescence Ex485/Em525 | inhibition, %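 (about 10 µM by stock and volumes)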 | 0.16% of 140,000 active | AID 898;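 active means inhibition of 50% or more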;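 further: controls were vehicle for no effect and minimum signal wells for full effect; inactives centre near -20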
Mtb H37Rv – M. tuberculosis H37Rv growth inhibitors, H37Rv strain (AID 1626); M. tuberculosis H37Rv growth inhibition; higher % means a stronger effect; inhibition, % at 10 µM, or IC50 in µM where a hit was titrated; 0.95% of 220,000 active;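 active means confirmed in a dose series; inconclusive means inhibition above 80% but not taken into the dose series; inactive means below 80% or under 30% at every dose of the series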;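 further: bacteria incubated seven days before Alamar blue readout; 0% = bacteria only wells and 100% = bacteria with antibiotic wells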
Arbovirus inh – antivirals against arbovirus infection. arbovirus infection cell-based antiviral screen. inhibition, % at 10 µM. 0.37% of 200,000 active. AID 1251;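 active means inhibition from about 30%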;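 further: bluetongue infection of BSR cells; cell survival read as ATP light after 72 h; 0% = infected wells without compound and 100% = uninfected wells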
Mtb betalactam – beta-lactam sensitization of Mtb H37Rv | M. tuberculosis H37Rv growth with meropenem, percent inhibition; hits of this screen are not shown here | inhibition, % at 25 µM | 0.27% of 330,000 active | AID 434955;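 active means about 74% or more and at least 40 points above the plate without the antibiotic, then above 30% in a dose series; inconclusive means first-round hits that could not be retested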;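 further: growth measured after seven days incubation then overnight dye step; 0% = bacteria only wells and 100% = bacteria with antibiotic; twin plates without the antibiotic show which effects depend on it; some results filed as inactive read as strong as hits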
RecA intein inh – Mtb RecA intein splicing inhibition; P9WHJ3; cell-free RecA intein splicing, fluorescence; inhibition, %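 (about 9 µM by stock and volumes)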; 0.75% of 290,000 active; AID 2221; in the data active means inhibition above about 30%; inconclusive means no clear call, values can overlap the other calls;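 further: 0% = vehicle wells and 100% = reference inhibitor control wells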
Target sequence (P9WHJ3 whole entry, looked up): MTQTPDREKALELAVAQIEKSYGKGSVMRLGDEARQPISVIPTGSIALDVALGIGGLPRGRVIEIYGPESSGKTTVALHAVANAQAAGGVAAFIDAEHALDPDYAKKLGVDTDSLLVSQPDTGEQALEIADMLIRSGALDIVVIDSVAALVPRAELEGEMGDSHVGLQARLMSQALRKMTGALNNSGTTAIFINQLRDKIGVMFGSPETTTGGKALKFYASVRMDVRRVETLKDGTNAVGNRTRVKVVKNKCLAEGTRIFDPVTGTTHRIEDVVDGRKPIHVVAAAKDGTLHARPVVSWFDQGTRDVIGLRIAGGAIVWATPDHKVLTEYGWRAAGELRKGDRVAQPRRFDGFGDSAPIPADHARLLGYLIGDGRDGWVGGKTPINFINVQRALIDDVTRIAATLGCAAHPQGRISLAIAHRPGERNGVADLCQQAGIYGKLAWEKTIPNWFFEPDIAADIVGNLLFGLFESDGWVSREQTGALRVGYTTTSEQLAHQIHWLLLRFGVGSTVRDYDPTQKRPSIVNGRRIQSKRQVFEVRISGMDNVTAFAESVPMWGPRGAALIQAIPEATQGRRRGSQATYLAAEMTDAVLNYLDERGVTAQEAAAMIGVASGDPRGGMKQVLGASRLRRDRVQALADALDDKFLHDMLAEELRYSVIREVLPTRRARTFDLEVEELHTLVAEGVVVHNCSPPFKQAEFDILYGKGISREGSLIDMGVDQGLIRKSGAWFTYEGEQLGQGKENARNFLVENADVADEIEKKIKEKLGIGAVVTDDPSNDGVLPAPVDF
Arbovirus inh repeat – also measured in Arbovirus inh; calls as there; inhibition, %; measured here: 10K subset replicate screen; many hits read low in the repeat;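 first of two repeat runs on a subset; 0% = infected and 100% = uninfected wells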
The depositor's hits bear a star; u = inconclusive; x = no result given.

Start of the listing, in advance (3 entries):
SMILES | YopH PTP inh | Mtb H37Rv | Arbovirus inh | Mtb betalactam | RecA intein inh | others
CN(C)c1ccc(CNS(=O)(=O)c2ccc3c(c2)C(C)(C)C(=O)N3C)cc1 | x | x | x | -3 | 0.8
CCc1nnc(NC(=O)CCC(=O)NCc2ccc(C)cc2)s1 | x | x | x | 7 | 13
CCOc1ccc(CNn2nnnc2N)cc1 | -3 | 1% | 1 | 2 | 1.7

The whole of this part, previewed entries included:
SMILES | YopH PTP inh | Mtb H37Rv | Arbovirus inh | Mtb betalactam | RecA intein inh | others
CN(C)c1ccc(CNS(=O)(=O)c2ccc3c(c2)C(C)(C)C(=O)N3C)cc1 | x | x | x | -3 | 0.8
CCc1nnc(NC(=O)CCC(=O)NCc2ccc(C)cc2)s1 | x | x | x | 7 | 13
CCOc1ccc(CNn2nnnc2N)cc1 | -3 | 1% | 1 | 2 | 1.7
CCOc1ccc(C(=O)Nc2cccc([N+](=O)[O-])c2)cc1Br | -36 | 0% | -12 | 3 | 0.4
CCC(C)NC(=O)C1CCCN(S(=O)(=O)c2ccc(-n3cnnn3)cc2)C1 (stereo not drawn) | 9 | 4% | 1 | 0 | -0.3
CN(C)CCNc1oc(COc2ccc(-c3ccccc3)cc2)nc1C#N | -20 | -6% | -13 | 26 | 2.2
COc1ccc2o/c(=N/NC(=O)c3cccs3)c(C(N)=O)cc2c1 | x | 0% | -1 | 0 | 2.3
CCCCNC(=O)Nc1ccc(C2SCCS2)cc1 | x | 7% | x | -11 | 1.4
Cc1c(Cl)cccc1NC(=S)N1CCCN(Cc2ccc(F)cc2)C1 | x | -6% | -26 | -2 | 3.1
Cc1cccc(NC(=S)NCc2ccccc2Cl)c1C | x | x | x | 8 | 5.7
COc1ccc(C(=O)Nc2cc(C)on2)c(OC)c1 | x | x | x | -8 | -1.0
O=C(NCCO)/C(=C/c1ccco1)NC(=O)c1ccco1 | x | x | x | -8 | -3.3
CCOC(=O)c1cncc(C#CCOC(=O)Nc2ccc(OC(F)(F)F)cc2)c1 | x | -3% | x | -11 | -0.1
O=C(O)C1C2CCC(O2)C1C(=O)Nc1ccc(O)cc1 (stereo not drawn) | -42 | 5% | -10 | 1 | 0.0
COc1ccc(-c2csc(NC(C)c3nc4cc(Cl)c(N5CCCCC5)cc4n3CCOCCO)n2)cc1 (stereo not drawn) | x | 7.7µM* | x | 99 | 8.5
CCn1c2ccccc2c2cc(NC(=O)COC(=O)c3cc(Cl)c(N)cc3OC)ccc21 | x | 9% | x | 38 | 2.4
Cc1cccc(OCC(=O)Nc2ccc(S(=O)(=O)Nc3onc(C)c3C)cc2)c1C | x | x | x | -9 | -1.5
CCOc1cc(CN2CCC(n3nccc3NC(=O)C3CC3)CC2)ccc1O | x | x | x | 4 | 0.2
Cc1cc(=O)[nH]c(=O)n1Cc1ccccc1 | x | 5% | 1 | 14 | 8.3
CCOC(=O)CON1C(=O)C(=O)N(OCC(=O)OCC)[C@H]2CCCC[C@H]21 | x | 3% | x | -7 | 1.2
CCOc1ccc(CCNC(=O)c2ccc3nc(CC)c(CC)nc3c2)cc1 | x | x | x | 9 | -0.5
COc1cc(NC(=O)CN2CC(c3ccccc3)CC2=O)cc(OC)c1 (stereo not drawn) | -35 | -11% | 2 | 1 | 7.3 | Arbovirus inh repeat=0
Cc1ccc2oc(Nc3nc(C)c(C)c(C)n3)nc2c1 | x | 0% | x | 26 | 4.1
Cc1cc(C)nc(NC(=O)/C=C/c2cccs2)c1 | 4 | 5% | -14 | 5 | x
CCn1c(=O)cc(N2CCCCC2)[nH]c1=O | -19 | -8% | 3 | -6 | -4.7
O=C(CCCn1c(SCC(=O)c2ccccc2)nc2ccccc2c1=O)NCC1CCCO1 (stereo not drawn) | 28 | -4% | 6 | u | 5.3
COc1ccc(CCN(C)C(=O)c2ccc(S(=O)(=O)NCc3ccco3)cc2)cc1OC | -24 | 3% | -4 | -1 | 0.4
Cc1ccc(C)c2[nH]c(=O)c(C(c3nnnn3CCc3ccccc3)N3CCOCC3)cc12 (stereo not drawn) | -29 | -16% | 8 | -7 | -11
CCOC(=O)CN(Cc1sccc1C)C(=O)Nc1ccc(OC)cc1OC | -4 | 2% | 5 | 3 | 4.5
Cn1c(SCC(=O)Nc2ccc3nc(SCC(=O)N4CCCC4)sc3c2)nnc1-c1ccc(N)cc1 | -8 | x | 3 | x | x
Cc1cc(NC(=O)NCc2ccccc2)c(=O)n(Cc2ccc(F)cc2)c1 | x | x | x | 2 | -40
COc1ccc(-n2c(Cc3cccn3C)nnc2SCC(=O)Nc2ccccc2OC)cc1 | -23 | -2% | -1 | 8 | 3.5
O=C1[C@H]2[C@@H](c3ccc(Cl)cc3)N3C(=O)N(c4cccc(Cl)c4)C(=O)[C@@]3(Cc3ccccc3)[C@H]2C(=O)N1C1CCCCC1 | x | x | x | -7 | 5.9
C/C(=N\Nc1ccccc1)c1c(O)[nH]c(=O)[nH]c1=O | x | u | x | 73 | -0.2
CCN1C(=O)C(CC(=O)NCCc2ccccc2)N(NC(=O)c2cccnc2)C1=S (stereo not drawn) | x | -9% | 5 | 3 | -0.9
Cc1cc(C(=O)Nc2ccccc2C(=O)O)oc1C | x | x | x | 7 | -2.1

Grouped by structure: those above containing fluorine
SMILES | YopH PTP inh | Mtb H37Rv | Arbovirus inh | Mtb betalactam | RecA intein inh | others
Cc1c(Cl)cccc1NC(=S)N1CCCN(Cc2ccc(F)cc2)C1 | x | -6% | -26 | -2 | 3.1
CCOC(=O)c1cncc(C#CCOC(=O)Nc2ccc(OC(F)(F)F)cc2)c1 | x | -3% | x | -11 | -0.1
Cc1cc(NC(=O)NCc2ccccc2)c(=O)n(Cc2ccc(F)cc2)c1 | x | x | x | 2 | -40

Next part.
SMILES | YopH PTP inh | Mtb H37Rv | Arbovirus inh | Mtb betalactam | RecA intein inh | others
COCCN(C(=O)Nc1ccccc1OC)c1nc2ccccc2s1 | x | x | x | 70 | 11
O=C(c1cnn(-c2ccccc2)c1-n1cccc1)N1CCN(C2CCCCC2)CC1 | x | -3% | -9 | -1 | -0.1 | Arbovirus inh repeat=-5
O=C(NCCc1ccc(Cl)cc1)c1ccc2[nH]c(=O)c(=O)[nH]c2c1 | x | x | x | 0 | 4.4
Cc1ccc(NC2=C(Cl)C(=O)c3ccccc3C2=O)cc1 | 3 | -2% | -48 | 10 | 3.8
CC(NC(=O)CN1c2cccc3cccc(c23)S1(=O)=O)c1ccc(S(N)(=O)=O)cc1 (stereo not drawn) | x | x | x | -15 | 6.9
CC(=O)Nc1ccc(S(=O)(=O)N2CCC(NC(C)=O)(c3cccc(F)c3)CC2)cc1 | -25 | -13% | 3 | -3 | -3.5
NC(=O)C1(N2CCCCC2)CCN(S(=O)(=O)c2ccc(Cl)s2)CC1 | x | x | x | -8 | -2.7
CC(Oc1ccc(Cl)cc1)C(=O)Nc1ncccn1 (stereo not drawn) | -12 | 2% | 1 | 0 | 1.2
Cc1cccc(OCc2ccc(C(=O)Nc3ccc(F)cc3)cc2)c1 | -6 | 0% | 0 | 5 | -2.7
COc1cc(Cl)c(C)cc1NC(=O)Cn1c(NCCO)nc2ccccc21 | x | 8% | x | -3 | -2.0
Oc1ccc(-c2n[nH]c(=S)n2-c2ccc3c(c2)OCCO3)c(O)c1 | -7 | 13% | 33* | -3 | -8.2
COc1ccc(NC(=O)c2ccc3c(=O)n(-c4ccc(OC)cc4OC)c(=S)[nH]c3c2)c(OC)c1 | x | 33% | -7 | 53 | -4.7
N#CC1=C(N)OC2=C(C(=O)CCC2)C1c1cc2c(cc1Cl)OCO2 (stereo not drawn) | x | x | x | -3 | -0.4
CCOc1ccc(OCCC(=O)N(CC)CC(=O)NCc2ccc(Cl)cc2)cc1 | x | x | x | -4 | 3.3
CN(C(=O)COc1ncnc2sccc12)c1ccccc1 | x | 7% | 1 | -10 | -2.0
Cc1cc(C(=O)N/N=C/c2ccc([N+](=O)[O-])o2)c(C)o1 | x | u | x | 100 | 8.1
CC(C)CN1C=C2C(=O)C(C)(OC(=O)CCc3ccccc3)C(=O)C=C2C=C1c1ccc(C#N)cc1 (stereo not drawn) | x | -11% | x | 8 | 2.9
CSc1ccc(Cl)c(C(=O)NCCOc2ccccc2)c1 | 2 | 5% | -2 | 1 | -2.6
FC(F)(F)c1nnc2ccc(N3CCOCC3)nn12 | 4 | -12% | 2 | -8 | -0.4
Cc1cc(O)c(/C=N/Nc2ccccc2)c(=O)o1 | -4 | 43% | -37 | 76 | -2.0
CCOC(=O)c1ccc(NC(=O)COC(=O)Cc2csc(-c3ccccc3)n2)cc1 | -11 | 10% | 1 | 26 | 0.7
Cc1ccccc1C(=O)N(CC(=O)Nc1sc(C)c(C)c1C(N)=O)C1CCCC1 | x | x | x | 2 | -0.9
COc1ccc(CCNC(=O)CN2C(=O)CSc3ccc(S(=O)(=O)N4CCOCC4)cc32)cc1OC | x | x | x | -5 | -6.2
CC1Cc2cc(S(=O)(=O)N3CCN(C)CC3)ccc2N1C(=O)C1CC1 (stereo not drawn) | x | x | x | 3 | -0.3
CCN(CC)C(=O)C(=O)c1cn(CC(=O)N2CCc3ccccc3C2)c2ccccc12 | x | 3% | 7 | 87 | 0.3
CCOc1ccc(N2CC(=O)N(c3ccc(OCC)cc3)CC2=O)cc1 | -42 | -2% | 0 | 4 | -0.8
CCOc1ccc(NS(=O)(=O)c2ccc(C(=O)NCC(c3ccccc3OC)N3CCCC3)cc2)cc1 (stereo not drawn) | x | x | x | -7 | 0.0
CCCNc1nc(Cl)nc(Nc2ccc(Cl)cc2)n1 | x | x | x | 0 | -0.1
Oc1ccc(-n2cnnn2)cc1 | -8 | -9% | -2 | -19 | 0.8
COc1cc2c(cc1OC)C(C(=O)N1CCC3(CC1)OCCO3)C(c1ccccc1F)N(C)C2=O (stereo not drawn) | 12 | -1% | -4 | -5 | -0.7 | Arbovirus inh repeat=-5
COc1ccc(C(=O)NNC(=O)C(=O)Nc2ccc(C)cc2)cc1 | x | x | x | 46 | 6.1
O=c1[nH]c(=O)n(Cc2ccco2)c(O)c1C=NC1CCN(Cc2ccccc2)CC1 | x | -2% | x | 0 | -0.5
CCN(CC)S(=O)(=O)c1cc(C(=O)O)ccc1Cl | -22 | -5% | 4 | -7 | 0.2
CCCOc1ccc(N2C(=O)CC(N(CCc3ccc(OC)cc3)C(=O)/C=C/C(=O)O)C2=O)cc1 (stereo not drawn) | x | 13% | 4 | -8 | 4.2
Cc1cccc(C2c3[nH]c4ccccc4c3CCN2C(=O)c2cc(-c3cccn3C)n[nH]2)n1 (stereo not drawn) | x | 8% | 0 | 5 | 23
CCCC(=O)Nc1nnc(S(=O)(=O)N(CC)c2ccc(OC)cc2)s1 | x | x | x | 6 | -2.3
CCOc1ccc(CSCCNC(=S)Nc2ccc(OC)cc2)cc1 | x | -7% | x | 0 | 3.8
CC1(C)CC2CC(C)(CN2C(=O)c2cc(-c3ccc(O)cc3)on2)C1 (stereo not drawn) | x | x | x | 30 | -4.1
Cc1ccc(OCCc2csc(N)n2)cc1 | x | x | -8 | 86 | -4.1
O=C(COC(=O)c1cccs1)NCCC1=CCCCC1 | -22 | -8% | 2 | 1 | -1.0
Cc1ccc(Cn2nnnc2CN2CCC(O)(c3ccc(F)cc3)CC2)cc1 | -12 | -1% | 12 | 0 | 3.8
O=[N+]([O-])c1ccc(N2CCN(S(=O)(=O)c3ccccc3)CC2)cc1NCc1ccco1 | -20 | -2% | -11 | -4 | 2.8
COc1ccc(C)cc1NS(=O)(=O)c1ccc2c(c1)N(C)CCO2 | x | x | x | 2 | -1.8
FC(F)(F)c1ccc(Oc2ccc3c(C(F)(F)F)cc(C(F)(F)F)nc3n2)cc1 | -34 | -7% | -2 | 15 | -0.8
COc1cc(/C=N/NC(=O)c2ccncc2)ccc1OC(=O)c1ccccc1Cl | x | u | 9 | 98 | 5.9
Fc1ccc(CN2C3=NCCCN3c3ccccc32)cc1 | -26 | 0% | -4 | -5 | 1.2
Cc1cc(-n2cccn2)ccc1CN1CCN(C2CCCC2)C(CCO)C1 (stereo not drawn) | x | 3% | -10 | -3 | -7.9
NC1=NC(=O)/C(=C\c2ccco2)S1 | x | -3% | x | -9 | 1.4
Nn1c(COc2ccccc2)nnc1SCc1cc(=O)[nH]c2ccccc12 | -7 | -12% | 4 | 1 | 0.2
CN1CCN(c2nc3c(c(=O)n(C)c(=O)n3C)n2CC(=O)C23CC4CC(CC(C4)C2)C3)CC1 | -28 | -7% | 1 | -5 | -3.2
Cc1cc(NC(=O)COC(=O)c2c(C)nn(Cc3ccccc3Cl)c2C)no1 | -10 | -11% | -1 | -9 | -2.4
O=C1[C@H]2CC3CCC2(O3)[C@@H]2OCCCN12 (stereo partly drawn) | x | x | x | -1 | -0.3

A portion of the library; rates above refer to the full screens.
